Mtb hypoxia rep = PubChem AID 1159583; fluorescence inhibition, % (test concentration not listed); 300,000 tested, 0.1% active; M. tuberculosis hypoxia-regulated fluorescent reporter, fluorescence;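 active = 35 to 45% if threefold the growth effect, above 45% if 1.5-fold the growth effect; inactive = the rest, general growth blockers included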;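 note: wells of about 50 µL received 100 nL stock; 0% = vehicle wells and 100% = reference inhibitor wells; whole bacteria with a GFP reporter of the hypoxia response; strong numbers were not always called active; many hits fall short of the cut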
Sa ugtP lethal = growth inhibition of ugtP-null S. aureus, primary screen, RN4220 ugtP deletion, OD600. 330,000 tested, 0.54% active. growth inhibition, % (no concentration beside the values). 16 h; some inactives read as strong as hits;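 active = z-score under -3 and OD600 up to 0.15 on both plates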;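 note: plate controls were untreated wells for no effect and antibiotic for full effect; wells of about 80 µL received 100 nL stock; the first replicate is given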
Bead autofluor = compound fluorescence in toxin protease inhibitor counterscreen; compound autofluorescence counterscreen, microsphere flow cytometry; active compounds read high; fluorescence intensity (no concentration beside the values); 360,000 tested, 3.1% active; AID 624483;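 active = at least 3 SD above the mean of all compounds, about 16000 in these data; inconclusive = too few beads counted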;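 note: 100 nL of 1 mM stock went into each well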
BJeLR viability = MLPCN primary cell-based screen for lethality selective to Ras in HRASV12 cells. BJeLR (HRASV12) viability, CellTiter-Glo ATP luminescence, 48 h; reference of the scale not given here. 300,000 tested, 0.17% active. inhibition, % (test concentration not listed);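 active = replicate mean above 50%; inconclusive = above 50% but judged a plate artefact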;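 note: 50 nL library stock added to about 25 µL; numbers are from one replicate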
RN4220 kill = growth inhibition of S. aureus RN4220, primary screen, OD600 | 16 h | inhibition, % (no concentration beside the values) | 330,000 tested, 0.33% active | AID 1259311, 2017;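 active = z-score of -3 or lower and OD600 up to 0.18 on both plates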;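 note: plate controls were untreated cells for no effect and reference antibiotic for full effect; stock transfer was 100 nL into about 80 µL; one replicate is shown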
PrP 5UTR inh = inhibition of PrP 5' UTR reporter expression; 340,000 tested, 0.35% active; cell-based PrP 5' UTR mRNA reporter, plate reader; inhibition, % (concentration not given with the values);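 active = every replicate at 50% or more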;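 note: 0 = median of the neutral control wells; tested in H4 reporter cells; numbers are from one replicate; inactives centre near -14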
Mtb hypoxia rep growth = also measured in Mtb hypoxia rep; calls as there; growth inhibition, %; measured here: M. tuberculosis growth (absorbance);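 0% = vehicle and 100% = reference antibiotic; read after six days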
Numbers without * were called inactive; ? = inconclusive; . = no result given; & = joins results of further samples.

SMILES	Mtb hypoxia rep	Mtb hypoxia rep growth	Sa ugtP lethal	Bead autofluor	BJeLR viability	RN4220 kill	PrP 5UTR inh
O=C(Nc1sc2c(c1C(=O)NCCO)CCCC2)c1ccco1	18	8	-6	6344	0	1.6	-3
CCN(CC(=O)Nc1cc(S(=O)(=O)N2CCOCC2)ccc1C)Cc1ccccc1	0	5	-2	?	-2	2.8	-3
COC(=O)c1ccc(OC)c(CN2CCCN(Cc3cc(C)ccc3C)S2(=O)=O)c1	-2	5	17	3397	-2	0.3	-26
O=C(COc1ccccc1[N+](=O)[O-])N/N=C/c1cccc(OC(=O)c2ccc3c(c2)OCO3)c1	.	.	.	2420	-10	.	-133
CCOc1ccc(-n2c(C)c(C(C)=O)c(C(C)=O)c2C)cc1	15	7	-1	2708	-6	-7.6	-16
CC(=O)Nc1nc(C)c(-c2csc(Nc3ccc(S(N)(=O)=O)cc3)n2)s1	15	7	-4	5288	6	0.8	-19
O=C1c2ccccc2C2(c3ccc(F)cc3)NCCN12 (stereo unspecified)	5	1	7	4431	-1	8.1	-29
COc1ccc(/C=C2\SC(=O)N(CCC(=O)NC3CCS(=O)(=O)C3)C2=O)cc1 (stereo unspecified)	-2	6	-4	5462	-3	4.3	-32
Cc1ccc(CN2CC(C(=O)Nc3ccc(C)c(S(=O)(=O)N4CCCCC4)c3)CC2=O)cc1 (stereo unspecified)	-3	1	-11	2994	.	0.9	15
O=C(O)c1ccc(-c2ccc(Cl)cc2Cl)o1	0	-2	-11	11668	-2	4.9	-13
CCN(CC)S(=O)(=O)c1ccc(OC)c(NC(=O)CSc2cc(C)ccc2C)c1	8	4	-4	2416	-15	-4.1	-17
O=C(COC(=O)CNC(=O)c1cccc([N+](=O)[O-])c1)Nc1cccc(S(=O)(=O)N2CCCCC2)c1	-2	8	7	2181	1	5.2	-13

Some entries already given, showing only Mtb hypoxia rep growth.
Molecule | Mtb hypoxia rep growth
O=C(O)c1ccc(-c2ccc(Cl)cc2Cl)o1 | -2
CCN(CC)S(=O)(=O)c1ccc(OC)c(NC(=O)CSc2cc(C)ccc2C)c1 | 4

(list continues)
SMILES	Mtb hypoxia rep	Mtb hypoxia rep growth	Sa ugtP lethal	Bead autofluor	BJeLR viability	RN4220 kill	PrP 5UTR inh
Cc1nc2sc(C(c3ccccc3)N3CCN(C(=O)c4ccco4)CC3)c(O)n2n1 (stereo unspecified)	-2	-4	8	7689	-7	3.6	-5
CC(=O)c1ccc(OCCCC(=O)N2CCN(S(=O)(=O)c3ccc(C)cc3C)CC2)cc1	-3	-5	10	4523	1	5.2	1
CC(=O)Oc1oc(-c2ccccc2)nc1C=Nc1ccccn1	18	5	4	.	.	3.9	.
Clc1cccc(C=NNc2nc(Cl)nc3ccccc23)c1	-1	4	-13	.	.	3.8	.
C#CCNC(=O)C1=C[C@H](c2ccccc2)[C@@H](CCCO)[C@H](OCC)O1	.	.	.	3678	6	.	-12
CC(C)(C)c1ccc(OCC(=O)NNC(=S)NC(=O)c2ccccc2[N+](=O)[O-])c(Br)c1	11	3	63	2452	-4	63	-21
CCCC(=O)Nc1ccccc1NC(=O)CCC	6	5	7	4052	5	6.1	-7
O=C(COc1ccc(Cl)cc1Cl)N/N=C1\CCCc2ccccc21	.	.	.	4037	5	.	-24
CCCN1CN(CCc2ccccc2)CNC1=S	4	-2	6	1999	-6	2.9	-6
CCOc1ccc(Br)cc1S(=O)(=O)N1CCCC1	.	.	-2	4270	-7	-3.9	-12
Cc1ccc(S(=O)(=O)N(CC(=O)N(C)C)c2cccc([N+](=O)[O-])c2)cc1	7	2	0	3065	.	5.2	-12
COC(=O)c1ccc(CSc2nc3ccccc3c(=O)n2CC(C)C)o1	.	.	18	2071	-1	-4.0	-12
COC(=O)c1ccc(/C=C2\CCn3c2nc2cc(C(=O)O)ccc2c3=O)cc1	9	0	10	3438	3	4.7	-11
CC1CCN(C(=O)C2CCN(S(=O)(=O)c3cccc4cccnc34)CC2)CC1	7	2	5	6060	1	3.2	-9
CN(C)S(=O)(=O)N(CC(=O)N1CCC(Cc2ccccc2)CC1)c1ccccc1	17	14	3	4020	6	2.7	-27
COc1ccccc1C(=O)Nc1cc2cc(Cl)ccc2oc1=O	12	9	-16	3237	2	-1.4	-51
CC1(C)CC(=O)/C(=C(/O)CCCN2C(=O)c3ccccc3C2=O)C(=NC(C)(C)C)C1	.	.	.	3751	-4	.	1
O=C(Cc1c(Cl)cccc1Cl)NCCc1ccc(Cl)cc1	-4	4	3	9129	-20	28	-4
COc1ccc(NC(=O)CN(C)C(=O)c2c(C)nn(Cc3ccc(C)cc3)c2Cl)cc1	4	0	3	5212	.	-0.7	.
Brc1ccc(COc2ncnc3ccccc23)cc1	.	.	-4	5258	-3	8.3	-30
COc1ccc(-c2cc(C(=O)Nc3ccc(S(N)(=O)=O)cc3)c3ccccc3n2)cc1OC	13	-2	1	2857	1	4.3	-3
CCCOc1ccc(C2C(=O)N(C3CCCCCC3)CC(=O)N2Cc2ccco2)cc1OC (stereo unspecified)	0	-2	11	22488*	-1	1.0	-112
Cn1cnnc1SCC(=O)Nc1cccc(S(=O)(=O)N2CCOCC2)c1	2	-3	8	4541	6	5.3	-23
CC(NC(=O)c1ccccc1NC(=O)CN1CCN(c2ccccc2O)CC1)c1ccccc1 (stereo unspecified)	-8	-2	-2	3897	.	2.2	-16

A draw from above in order of heavy-atom count, largest number first:
SMILES	Mtb hypoxia rep	Mtb hypoxia rep growth	Sa ugtP lethal	Bead autofluor	BJeLR viability	RN4220 kill	PrP 5UTR inh
CC1(C)CC(=O)/C(=C(/O)CCCN2C(=O)c3ccccc3C2=O)C(=NC(C)(C)C)C1	.	.	.	3751	-4	.	1
COC(=O)c1ccc(/C=C2\CCn3c2nc2cc(C(=O)O)ccc2c3=O)cc1	9	0	10	3438	3	4.7	-11
O=C(Cc1c(Cl)cccc1Cl)NCCc1ccc(Cl)cc1	-4	4	3	9129	-20	28	-4

(next part)
SMILES	Mtb hypoxia rep	Mtb hypoxia rep growth	Sa ugtP lethal	Bead autofluor	BJeLR viability	RN4220 kill	PrP 5UTR inh
COc1cc(OC)cc(C(=O)OCC(=O)NCCCc2ccccc2)c1	4	-1	0	2994	-6	-5.2	-14
NC(=O)C1(Nc2ccc(Cl)cc2)CCCC1	17	9	5	2854	.	-3.3	-6
CCOc1ccccc1NC(=O)CSc1nnc2ccc(-c3ccccn3)nn12	-1	3	-3	4406	-16	-2.6	-4
O=C(OCC#CCSc1nnc(-c2ccncc2)o1)c1cccs1	1	8	-9	8681	-5	-7.7	-36
COc1ccccc1C(CC(=O)Nc1ccccc1C)c1ccc(OC(C)C)cc1 (stereo unspecified)	.	.	.	2222	8	.	-15&-24
CC(=O)Nc1ccc(-c2csc(NC(=O)Cc3cccc(F)c3)n2)cc1	6	11	-21	5489	-3	-7.6	-25
CCn1c(CO)nc2c1c(=O)[nH]c(=O)n2Cc1ccccc1	-8	3	-1	3869	6	-4.2	-3
CCCC(=O)Nc1nnc(S(=O)(=O)N(CC(C)C)c2ccccc2)s1	5	-6	7	4007	10	3.5	-12
N#CC1(NC(=O)CN2C(=O)NC(c3ccccc3)(c3ccccc3)C2=O)CCCC1	2	5	2	3720	.	1.1	-11
COc1cc(C(=O)OCC(=O)Nc2nnc(-c3ccccc3)o2)cc(OC)c1OC	2	-3	-2	.	-6	4.8	-8
CCN1C(=O)C2C(c3ccc(C)cc3)N3C(=O)N(c4cccc(Cl)c4)C(=O)[C@@]3(CC)C2C1=O (stereo partly specified)	10	9	3	.	.	3.6	.
CS(=O)(=O)N1CCC(C(=O)Nc2cccc(F)c2)CC1	-2	3	-3	3978	-22	2.6	-16
COCCNC(=O)C1Nc2ccc(C(F)(F)F)cc2C2C=CCC12 (stereo unspecified)	13	2	12	4080	-4	5.8	-16
Cc1cc(NC(=O)CC(CN(C)S(=O)(=O)c2ccccc2)c2ccccc2)no1 (stereo unspecified)	1	19	-2	6258	0	-9.6	-27
CN(C(=O)CCn1c(=S)oc2ccccc21)C1CCCCC1	9	2	3	4066	-8	12	.
CCN1/C(=C/c2ccc3ccccc3[n+]2CC)C=Cc2ccccc21	.	.	.	4755	62*	.	28
Cc1cc(C)nc(NC(=O)c2ccc([N+](=O)[O-])o2)n1	2	5	37	2526	-11	7.2	-9
CCOc1cc(C2/C(=C(/O)c3ccc(OC(C)C)cc3)C(=O)C(=O)N2CCCOC)ccc1O (stereo unspecified)	25	-20	0	2232	2	-15	-13
CC(C)(C)OC(=O)N1CCCC(C(=O)Nc2ccc(C(=O)N3CCCCC3)cc2)C1 (stereo unspecified)	-4	-5	-1	3658	.	-2.3	-11
CN(CC(=O)O)S(=O)(=O)c1ccc2c(c1)NC(=O)CC(=O)N2	-14	-9	5	3347	3	9.5	2
CC(/C=N/NC(=O)c1ccc(Br)cc1)=C\c1ccccc1	.	.	.	11090	2	.	-35
CC1=C(C)CS(=O)N(S(=O)(=O)c2ccccc2)C1 (stereo unspecified)	2	3	1	6096	-4	4.6	-23
N#Cc1c(N2C(=O)c3ccc(C(=O)O)cc3C2=O)sc2c1CCCC2	1	0	3	3791	-3	2.0	-31
C=CCNCC(=O)N1N=C(c2ccc3ccccc3c2)CC1c1ccc(OC)cc1 (stereo unspecified)	-3	19	-1	4618	3	-0.6	-10
Cc1occc1C(=O)NC(C)CCc1ccccc1 (stereo unspecified)	18	21	6	3255	-1	1.0	-7
CCC1(c2cccc(O)c2)CCCCN(C)C1 (stereo unspecified)	2	-2	2	6061	.	4.4	-24
COc1cc2c(cc1OC)C(C)N(C(=O)c1ccc(C)o1)CC2 (stereo unspecified)	7	5	5	3735	-2	1.2	-18
CN1C(=O)[C@H]2[C@@H](/C=C/c3ccccc3)N3C(=O)CN(CCO)C(=O)[C@@]3(Cc3ccccc3)[C@H]2C1=O	.	.	.	2969	-7	.	-16
CCCc1ccc(O)c(N=Cc2cc(Br)cc(OCC)c2O)c1	.	.	.	3052	-18	.	-6
CCOC(=O)c1c(-c2ccc(C)cc2)csc1NC(=O)c1cccc(N2C(=O)CCC2=O)c1	6	13	5	10901	-1	0.5	-2
COc1ccc(OC)c(C(=O)COC(=O)c2ccc(C)o2)c1	25	-19	3	3097	-6	-17	-25
CCN(CCO)c1ncnc2c1sc1nc(CC(C)C)c3c(c12)CC(C)(C)OC3	8	-1	46	15948	-12	4.4	10
COC(=O)c1nn(-c2ccc3c(c2)CCN3C(C)=O)cc1O	5	4	5	10548	27	7.4	82*
O=C(N/N=C/c1ccccc1[N+](=O)[O-])c1ccc(CN2CCOCC2)cc1	.	.	.	2830	-9	.	-19
CCCCCNC(=O)[C@@H]1CSC2c3ccccc3C(=O)N21 (stereo partly specified)	12	-4	21	2808	5	3.1	-19
O=C(O)C1CCN1C1CCCCC1 (stereo unspecified)	9	9	13	2380	-6	-1.3	6
CCc1ccc(NC(=O)c2cc3c(C)nc4ccccc4c3o2)cc1	1	9	-18	2269	3	2.5	-17
O=C(Nc1ccc(-c2nc3ccccc3s2)c(O)c1)C1=COCCO1	7	2	-10	2526	-3	-2.5	-110
O=C(Nc1ccc(Cl)c(S(=O)(=O)N2CCOCC2)c1)c1ccc(Cl)nc1	12	2	3	?	.	2.5	-37
COc1cccc(N(CC(=O)NC2CCCCC2)C(=O)CCC(=O)Nc2nc(C)cs2)c1	-4	-4	0	4189	-1	0.2	-11
OC1(c2cccc(C(F)(F)F)c2)CCN(Cc2nc(-c3cnccn3)no2)CC1	7	-8	5	3571	2	2.6	-14
CCNc1nc(N)c(C(=C(C#N)C#N)c2ccccc2)s1	2	3	5	4609	5	3.2	-23
Nc1ccc(S(=O)(=O)Nc2nccc(/C=C/c3cccc(Br)c3)n2)cc1	-1	8	-1	3522	-2	4.9	-18
CCc1cc2c(cc3c(=O)n(CC(=O)N4CCN(c5ccccn5)CC4)nc(CC)n32)s1	1	7	3	13198	-4	8.3	-17
O=C(COC(=O)c1ccc(Sc2ccccc2)c([N+](=O)[O-])c1)NC1CCCc2ccccc21 (stereo unspecified)	.	.	4	4513	3	2.0	-1
COc1ccc(NC(=O)C2C3C=CC(O3)C2C(=O)NCc2cccnc2)cc1 (stereo unspecified)	5	10	-1	5667	1	5.1	-20
O=c1[nH]c2ccccc2c(O)c1-c1cc2ccccc2oc1=O	4	5	9	.	3	5.5	.

Assay outcomes (PubChem)
